High-throughput results: PubChem, several laboratories
Mtb hypoxia inh: inhibitors of hypoxia-regulated fluorescent reporter in Mycobacterium tuberculosis. M. tuberculosis hypoxia-regulated fluorescent reporter, fluorescence. fluorescence inhibition, % (test concentration not listed). 300,000 tested, 0.1% active;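 active means 35 to 45% if threefold the growth effect, above 45% if 1.5-fold the growth effect; inactive means the rest, general growth blockers included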;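 further: wells of about 50 µL received 100 nL stock; 0% = vehicle wells and 100% = reference inhibitor wells; whole bacteria with a GFP reporter of the hypoxia response; strong numbers were not always called active; many hits fall short of the cut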
Autofluor counter: flagged as autofluorescent in microsphere protease counterscreen; AID 624483; compound autofluorescence counterscreen, microsphere flow cytometry; stronger effect = higher value; 360,000 tested, 3.1% active; fluorescence intensity (concentration not given with the values);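 active means at least 3 SD above the mean of all compounds, about 16000 in these data; inconclusive means too few beads counted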;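 further: 100 nL of 1 mM stock went into each well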
RN4220 kill: kills Staphylococcus aureus RN4220. S. aureus RN4220 growth, OD600, 16 h. inhibition, % (no concentration beside the values). 330,000 tested, 0.33% active;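 active means z-score of -3 or lower and OD600 up to 0.18 on both plates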;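 further: plate controls were untreated cells for no effect and reference antibiotic for full effect; stock transfer was 100 nL into about 80 µL; one replicate is shown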
ugtP null kill: compounds lethal to S. aureus RN4220 ugtP deletion mutant. OD600 growth, 16 h; some inactives read as strong as hits. growth inhibition, % (test concentration not listed). 330,000 tested, 0.54% active. AID 1259309;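 active means z-score under -3 and OD600 up to 0.15 on both plates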;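 further: plate controls were untreated wells for no effect and antibiotic for full effect; wells of about 80 µL received 100 nL stock; the first replicate is given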
BJeLR lethal: BJeLR cell viability loss. AID 1554. BJeLR (HRASV12) viability, CellTiter-Glo ATP luminescence, 48 h; reference of the scale not given here. inhibition, % (concentration not given with the values). 300,000 tested, 0.17% active;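 active means replicate mean above 50%; inconclusive means above 50% but judged a plate artefact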;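 further: 50 nL library stock added to about 25 µL; numbers are from one replicate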
PrP 5UTR inh: inhibition of PrP 5' UTR reporter expression; cell-based PrP 5' UTR mRNA reporter, plate reader; inhibition, % (concentration not given with the values); 340,000 tested, 0.35% active;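 active means every replicate at 50% or more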;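 further: 0 = median of the neutral control wells; tested in H4 reporter cells; numbers are from one replicate; inactives centre near -14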
Mtb hypoxia inh growth: further read-out of Mtb hypoxia inh, marked with its call; growth inhibition, %; measured here: M. tuberculosis growth (absorbance);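 0% = vehicle and 100% = reference antibiotic; read after six days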
An asterisk follows results filed as active; ? = inconclusive; · = no result given.

Values run as follows: Mtb hypoxia inh	Mtb hypoxia inh growth	Autofluor counter	RN4220 kill	ugtP null kill	BJeLR lethal	PrP 5UTR inh
- CCCCCc1nnc(NC(=O)NS(=O)(=O)c2ccc(C)cc2)s1
 : 4	-10	3736	3.4	2	11	-25
- CC(C)(C)C(=O)/C=C1\NC(=O)CS1
 : 7	13	4482	2.6	7	-1	-12
- CCCCc1nc2ccccc2c(N)c1CCC (tested in a mixture with another compound)
 : 11	8	2237	3.2	4	-1	-8
- CCN(CC)S(=O)(=O)c1ccc(OC)c(NS(=O)(=O)c2cccc(C(=O)O)c2)c1
 : 1	-2	4264	-1.8	7	0	27
- O=C(CSc1nnc2n1CCCN2)c1ccc([N+](=O)[O-])cc1
 : 6	1	4114	4.8	4	-3	-28
- O=C(c1cc(-c2ccc(F)cc2)nc2ccccc12)N1CCN(C2CCS(=O)(=O)C2)CC1 (stereo not given)
 : 6	9	3506	7.5	-2	·	-36
- C/C(=N\NC(=O)CNc1ccccc1)c1ccccc1
 : ·	·	4500	·	·	-10	-11
- C=CCNC(=S)N=c1scc(C)n1C
 : 12	0	·	1.5	16	·	·
- Cc1c(N)cc(N)cc1C(=O)O
 : 13	-6	4934	5.4	10	18	-15
- COc1ccc(-c2csc(NC(C)c3nc4cc(Cl)c(Cl)cc4n3CCOCCO)n2)cc1 (stereo not given)
 : -1	16	4350	-6.4	-2	-7	-26
- CCOC(=O)CSc1nnc(Cc2ccccc2)n1Cc1ccco1
 : 5	0	10564	1.9	-2	4	-33
- Cc1c(NC(=O)CN2CCCc3ccccc32)c(=O)n(-c2ccccc2)n1C
 : -6	11	22099*	-0.8	-8	-1	1
- COc1ccc(Cc2nc3c4c(ncn3n2)Oc2ccc3ccccc3c2C4c2ccc(OC)c(OC)c2)cc1 (stereo not given)
 : 8	4	2762	2.3	-6	-20	-3
- COc1ccc(-n2c(SCC(=O)N3CCCCC3)nc(O)cc2=O)cc1
 : -1	5	21636*	3.0	5	-8	-28
- Cc1cc(C)c(C(=O)CSC2=NC(N)=C(C#N)C3(CCCCC3)C2C(N)=O)cc1C (stereo not given)
 : 11	10	9530	-9.7	-16	6	-53
- CC(C)c1ccc(CCNC(=O)CCNC(=O)c2ccc(Br)cc2)cc1
 : 14	9	6000	1.8	8	11	-17
- CCC(=O)Nc1ccc(NC(=S)NC(=O)c2cc3ccccc3o2)cc1
 : 13	10	2406	2.2	22	-1	-14
- CSc1nnc([C@H](C)NC(=O)OC(C)(C)C)o1
 : 1	5	9293	5.7	0	1	-37
- COc1cc(-c2nnc(NC(=O)C3=COCCO3)o2)cc(OC)c1OC
 : -11	-3	6356	0.7	-5	-13	-10
- [N-]=[N+]=N[C@@H](CCN1CC[C@H](NC(=O)OCc2ccccc2)CCC1=O)c1ccccc1
 : ·	·	2978	·	·	9	-19
- O=C(CSc1nc2ccccc2o1)Nc1nncs1
 : 15	12	3379	2.6	-5	2	-15
- Cc1c(CCC(=O)NC2CC2)c(=O)oc2c(C)c(O)ccc12
 : ·	·	6458	1.2	-7	-7	-23
- O=S(=O)(NCCSc1ccccc1)c1cccs1
 : 5	7	?	9.3	3	2	-23
- Cc1cc(OCC(=O)N2CCCN(C)CC2)ccc1Cl
 : 5	5	5438	5.8	9	2	-18
- Cc1ccccc1C(=O)Nc1nc2n(n1)C(c1ccccc1)CC(=O)N2 (stereo not given)
 : 8	13	5638	1.6	-2	1	3
- CCN(CC)CCCN(C(=O)Cn1nnc(-c2ccc(OC)c(OC)c2)n1)C(C(=O)NC(C)(C)C)c1ccc(F)cc1 (stereo not given)
 : 5	6	3269	-2.6	10	3	-23
- O=C(NCCCN1CCCC1)c1ccc2c(c1)N(Cc1ccccc1)CCS2
 : -5	3	4638	-5.1	-7	-1	-10
- Cc1ccc(S(=O)(=O)N2CCC(N3CCC(C)CC3)CC2)cc1
 : ·	·	4869	·	·	-3	-18
- CCN1C(=O)/C(=C\c2nc3ccccc3c(=O)n2-c2ccccc2)c2ccccc21
 : 5	5	2059	2.4	-4	20	-20
- CCOC(=O)CNC(=O)N1CCCC(CNS(=O)(=O)c2cccs2)C1 (stereo not given)
 : 6	5	4005	7.5	17	4	-1
- CC[C@]12c3[nH]c4cc(-c5ccco5)ccc4c3CCN1C(=O)[C@@H](CC(=O)NCc1ccco1)C[C@@H]2C(=O)N1CCN(C(=O)C2CC2)CC1
 : -3	3	4330	-0.7	2	·	-15
- O=C(NCc1ccc2c(c1)OCO2)C1CCCN(C(=O)c2ccc(Cl)cc2)C1 (stereo not given)
 : ·	·	·	-1.9	10	0	-32
- O=C(O)Cn1nnn(-c2ccccc2)c1=S
 : 0	-7	3321	3.9	6	-9	-21
- Cc1cc(N=Cc2cc(Br)ccc2O)no1
 : 10	5	10491	6.7	16	-10	-30
- CCN(CC)C(=O)[C@H]1C[C@H](CC(=O)NCC23CC4CC(CC(C4)C2)C3)C(=O)N2CCc3c([nH]c4cc(-c5ccco5)ccc34)[C@]12C
 : -7	1	4196	-0.5	-7	·	-19
- COC(=O)c1ccc(S(=O)(=O)N2CCC(O)CC2)n1C
 : 5	5	4507	3.7	4	5	-1
- COc1ccc(NC(=O)c2cc(-c3ccccc3Cl)on2)cc1
 : 7	9	3979	3.7	-4	-5	-53
- Cc1ccccc1NC(=O)Cn1nnc(-c2ccc(N3CCOCC3)cc2)n1
 : 3	8	22327*	3.4	0	5	-11
- CN(C)c1ccc(N2C(CC(=O)O)c3cc(C(F)(F)F)ccc3S2(=O)=O)cc1 (stereo not given)
 : 4	4	·	4.9	4	·	·
- COc1ccccc1CNC(=O)CCNS(=O)(=O)c1cccc2nsnc12
 : 4	2	10348	1.9	4	-5	-18

Entries of single compounds as entered above:
Cc1ccccc1C(=O)Nc1nc2n(n1)C(c1ccccc1)CC(=O)N2 (stereo not given) as listed: Mtb hypoxia inh = 8; Mtb hypoxia inh growth = 13; Autofluor counter = 5638; RN4220 kill = 1.6; ugtP null kill = -2; BJeLR lethal = 1; PrP 5UTR inh = 3
Cc1c(CCC(=O)NC2CC2)c(=O)oc2c(C)c(O)ccc12 as listed: Mtb hypoxia inh = ·; Mtb hypoxia inh growth = ·; Autofluor counter = 6458; RN4220 kill = 1.2; ugtP null kill = -7; BJeLR lethal = -7; PrP 5UTR inh = -23

Further results follow:
Values run as follows: Mtb hypoxia inh	Mtb hypoxia inh growth	Autofluor counter	RN4220 kill	ugtP null kill	BJeLR lethal	PrP 5UTR inh
- CCC(CC)NC(=O)CSc1ccc(S(=O)(=O)N2CCOCC2)cn1
 : 9	-1	6729	1.5	3	·	-33
- CC1CC2C3CCC4=CC(=O)C=C[C@]4(C)[C@@]3(Cl)C(O)C[C@]2(C)[C@@]1(O)C(=O)CO (stereo not given in full)
 : 13	1	·	4.5	-7	·	·
- O=C1NC2NC(=O)N([N+](=O)[O-])C2N1 (stereo not given)
 : -1	-1	4448	3.9	0	-1	·
- COc1ccc(CN2CC(C(=O)NC3CCCCC3)CC2=O)cc1 (stereo not given)
 : 6	-2	4379	1.0	6	-4	0
- OC(COc1ccccc1Cl)CN1CCN(CC(O)COc2ccccc2Cl)CC1 (stereo not given)
 : ·	·	3380	-1.5	-8	7	-5
- CC(=O)NCC(=O)OCc1ccc([N+](=O)[O-])cc1
 : 8	0	2379	2.7	5	-5	-10
- NS(=O)(=O)OC(CCc1ccccc1)C(Cl)(Cl)Cl (stereo not given)
 : -5	-1	4130	4.8	4	-13	-10
- COC(=O)c1ccc(COc2ccccc2C=NNc2cccc(C(=O)O)c2)cc1
 : 11	2	·	9.9	2	·	·
- CCCN(Cc1ccccc1)C(=S)NC(=O)c1ccccc1[N+](=O)[O-]
 : 5	2	3942	1.8	2	-13	-12
- O=C(CSc1nc2ccccc2s1)Nc1ccc2c(c1)oc1ccccc12
 : 3	8	2416	-14	-3	-16	-10
- O=C(N/C(=C\c1ccco1)C(=O)N1CCCC1)c1ccccc1
 : -3	-3	4688	4.8	8	-2	-9
- COc1cccc(C(=O)NN=Cc2ccc(OC)c(COc3ccccc3C(N)=O)c2)c1
 : 9	2	·	0.2	10	·	·
- O=C(Nc1ccccc1N1CCOCC1)c1ccc(N2CCOCC2)c([N+](=O)[O-])c1
 : 13	7	4372	2.4	2	8	5
- CCCCOc1cccc(NC(=O)CSc2nncn2C)c1
 : -3	-4	10756	4.6	11	9	-13
- O=C(c1cc(-c2ccc(Br)cc2)on1)N1CCCCCC1
 : -2	-4	5897	2.6	2	-3	-64
- COc1ccc(CCCc2nnc(SCC(=O)NN)o2)cc1
 : 11	-1	4669	5.8	5	-13	-27
- O=C(Nc1cc(C(=O)N2CCN(c3ccccc3O)CC2)ccc1Cl)c1cccs1
 : 6	-4	4402	4.8	6	-1	-6
- CC(=O)Nc1ccc(N2CCOCC2)c(Cl)c1
 : -8	7	2854	1.9	1	-7	-23
- COc1cc2c(cc1OC)CN(C1CCCN(Cc3cccc(C(C)=O)c3)C1)CC2 (stereo not given)
 : -6	14	4351	-1.6	-4	·	3
- CN(C)S(=O)(=O)c1ccc(C(=O)NCCOc2ccccc2)cc1
 : 2	3	3917	-1.2	-3	4	-69
- CCCCNC(=O)CCC(=O)Nc1ccc2nc(N3CCC(C)CC3)cc(C)c2c1
 : -12	-10	4086	-0.4	11	2	-44
- O=C(CS(=O)(=O)c1cn(Cc2ccc(F)cc2)c2ccccc12)N1CCOCC1
 : 2	11	5806	-6.3	-1	-22	-8
- Cn1c(SCC(=O)NC2CCCCC2)nnc1-c1cc2ccccc2o1
 : ·	·	4220	-0.7	0	-2	-19
- Cc1cc(-c2ccccc2)cc(-c2ccccc2)[n+]1C
 : 12	9	4778	1.2	1	·	-13
- NC(=O)c1ccc(-n2nnnc2SCC(=O)Nc2ccccc2-c2ccccc2)cc1
 : ·	·	2409	2.6	-2	3	-8
- COc1ccc2[nH]c3c(c2c1)CCN1C(=O)C(CC(=O)NC/C=C(\C)CCC=C(C)C)C[C@H](C(=O)N(C(C)C)C(C)C)[C@@]31C (stereo not given in full)
 : -5	7	3852	1.3	-2	·	-14
- Cc1ccc(S(=O)(=O)N2CCOCC2)cc1NC(=O)CN1C(=O)NC(C)(c2ccc(Cl)cc2Cl)C1=O (stereo not given)
 : -1	-3	3042	2.8	4	·	-6
- CC(C)N(CCNC(=O)C1CCC(=O)N1Cc1ccc(F)cc1)Cc1ccccc1 (stereo not given)
 : 4	-5	3155	-18	-5	5	-18
- CC(C)(C)c1ccc(OCCC(=O)Nc2cccc(S(=O)(=O)N3CCCCC3)c2)cc1
 : ·	·	10051	·	·	2	0
- COc1ccc(NC(=O)C2=Cc3cccc(OC)c3OC2)cc1
 : 2	1	4176	-1.7	2	·	-80
- O=C(Cc1nn[nH]n1)Nc1cc(Cl)cc(Cl)c1
 : 11	7	4062	0.9	-2	6	-5
- CCc1ccc(N(C(C)=O)C2C=CS(=O)(=O)C2)cc1 (stereo not given)
 : -4	1	8829	-2.7	-7	0	-6
- O=C(OCC(=O)N1CCc2ccccc21)c1ccc([N+](=O)[O-])cc1
 : 7	8	4003	1.4	-4	·	-13
- COc1ccc(CCN2CC(C(=O)NCCN3CCOC3=O)CCC2=O)cc1 (stereo not given)
 : 2	-9	6229	4.1	3	-7	-6
- CCN(CC)S(=O)(=O)c1cccc(C(=O)NC(C(=O)NC2=NCCS2)C(C)C)c1 (stereo not given)
 : ·	·	2950	-1.4	-2	-6	-16
- C=CCn1c(Oc2cc(C)ccc2C)nc2c1c(=O)n(C)c(=O)n2C
 : 3	5	11144	4.2	-4	11	-17
- Cc1ccc(S(=O)(=O)N(C(=O)c2ccco2)c2cc3sc(=O)oc3c3ccccc23)cc1
 : -5	2	2698	1.4	-2	6	-18
- COc1ccc(-c2nc3n(c(=O)c2C#N)CCCS3)cc1
 : ·	·	3457	8.3	2	5	-32
- COc1ccc(-c2noc(N3CCC(C(=O)NCc4ccc(F)cc4)CC3)n2)cc1
 : -6	6	5953	11	7	8	1
- COc1ccc(C(=O)CCN2CCN(c3ccccc3OC)CC2)cc1
 : -1	5	5502	1.9	5	1	-28
- CCn1nc(C(=O)Nc2nc(-c3ccccn3)cs2)c2ccccc2c1=O
 : -6	-5	?	19	-3	·	34
- COc1ccccc1[C@@H]1C(c2ccc(F)cc2)=NN(c2ccccc2)[C@H]1C(=O)N1CCOC1=O
 : ·	·	3767	·	·	-5	-21
- CCN(CCNC(=O)c1ccc(C#N)cc1)c1cccc(C)c1
 : -4	-5	4530	0.6	7	-3	-27
- Cc1nc2c(=O)n(C)c(=O)[nH]c2n1Cc1ccccc1
 : 8	5	4414	1.3	2	-12	-30
